Source: PubChem BioAssay
GIV-Gai inh – inhibitors of GIV peptide binding to Galpha-i3, primary screen, biochemical, fluorescence polarization, FITC-GIV GBA peptide, rat Galphai3 | 90 min; stronger effect = lower value; scaled: aluminum fluoride 0%, vehicle 100% | percent of control (FP), % (concentration not given with the values) | AID 1224905, 2016 | 0.42% of 210,000 active;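 active = replicate mean at 85% of control or lower, very high polarization wells dropped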;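 note: wells of about 15 µL received 100 nL stock; the first replicate is given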
Target sequence (P08753 whole entry, looked up): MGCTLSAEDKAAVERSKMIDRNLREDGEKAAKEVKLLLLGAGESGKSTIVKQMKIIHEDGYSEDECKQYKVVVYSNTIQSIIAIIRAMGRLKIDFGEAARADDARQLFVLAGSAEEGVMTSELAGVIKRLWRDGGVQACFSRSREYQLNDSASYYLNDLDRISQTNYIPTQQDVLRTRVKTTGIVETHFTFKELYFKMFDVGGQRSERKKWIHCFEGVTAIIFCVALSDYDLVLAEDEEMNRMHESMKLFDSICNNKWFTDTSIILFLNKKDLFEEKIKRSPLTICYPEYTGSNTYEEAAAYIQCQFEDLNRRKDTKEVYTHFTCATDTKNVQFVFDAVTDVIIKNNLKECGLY
The depositor's hits bear a star. The list is partial, so the mix of outcomes need not match the whole.

SMILES	GIV-Gai inh
CN(c1ccc(Br)cc1)S(=O)(=O)c1ccc2[nH]cc(C(=O)N3CCN(Cc4ccccc4)CC3)c(=O)c2c1	104
CCCc1cc(C2CCCN2Cc2cccc(Br)c2)no1 (centres undefined)	98
CC1(C)CC(=O)C2=C(C1)Nc1[nH]c(=O)[nH]c(=O)c1C2c1ccc(O)cc1 (centres undefined)	104
CCOC(=O)N1CCN(C(=O)c2c[nH]c3ccc(S(=O)(=O)N(C)c4ccccc4CC)cc3c2=O)CC1	103
COc1ccc(NC(=O)c2cc3ccc(OC)cc3oc2=Nc2ccc(C(=O)O)cc2)c(OC)c1	111
CCc1ccc(NC(=O)c2sc3nc4c(cc3c2N)C(=O)CC(C)(C)C4)cc1	112
Cc1ccc(CS/C(Nc2ccc(C)c(C)c2)=C(\C#N)C(=O)NCc2ccco2)c(C)c1	103
Clc1ccccc1-n1ncc2c(N3CCN(c4ccccc4)CC3)ncnc21	95
Cc1c(N(CC(=O)NN=C2CCCCC2)S(=O)(=O)c2ccccc2)c(=O)n(-c2ccccc2)n1C	104
COc1ccc(Cn2nnc3cc(C(=O)NCc4ccc(Cl)cc4)ccc32)cc1	107
Cc1ccc(NC(=O)/C(=C/c2ccc([N+](=O)[O-])cc2)NC(=O)c2ccc(C(C)(C)C)cc2)cc1Cl	105
Cc1c(Cl)cccc1NS(=O)(=O)c1cc(-c2nc(C(C)(C)C)cs2)cs1	104
CCOC(=O)C1=C(N)n2c(s/c(=C\c3ccc(O)cc3)c2=O)=C(C#N)C1c1ccc(O)cc1 (centres undefined)	116
N#Cc1c(N)nc2sc(C(=O)Nc3ccc(Br)cc3)c(N)c2c1-c1cccs1	103
COc1ccc(-c2nc(-c3ccc(C)cc3)[nH]c2-c2ccc(OC)cc2)cc1	109
COc1ccccc1C(=O)NCCc1c(C)[nH]c2ccc(OCc3ccccc3)cc12	104
CCCN(CCC)CC(O)CN(c1ccccc1)S(=O)(=O)c1ccccc1 (centres undefined)	113
CCN1CCCC1CNC(=O)c1ccc2c(c1)[nH]c(=S)n1c3ccccc3nc21 (centres undefined)	104
Cc1noc(C)c1C1CCCN1C(=O)C1CCC1 (centres undefined)	99
CCN(CC)CCN1C(=O)C(=O)/C(=C(\O)c2ccc(Cl)cc2)C1c1ccc(F)cc1 (centres undefined)	113
Cc1ccc(S(=O)(=O)N2CCCN(c3nc4cccnc4s3)CC2)cc1C	104
COCCNC(=O)c1sc2ncnc(N3CCN(c4ccccn4)CC3)c2c1C	104
CCOC(=O)c1ccc(N2N=C(C(F)(F)F)/C(=C/c3ccc(O)c(OCC)c3)C2=O)cc1	107
COC(=O)c1c(-c2ccc(F)cc2)noc1NCc1ccc2c(c1)OCO2	109
CCCOc1ccc(CN2CCCC2c2cc(C)no2)cc1 (centres undefined)	101
Next part.
SMILES	GIV-Gai inh
CCCCN(C)C(=O)C1CCN(c2cncnc2N2CCOCC2)CC1	106
Cc1ccc(-c2nc(CNC(=O)c3ccc(Cl)nc3)no2)cc1	97
CCS(=O)(=O)c1nc2ccc(NS(=O)(=O)c3c(C)c(C)cc(C)c3C)cc2s1	101
O=c1n(Cc2cccc(Cl)c2)nc2c(S(=O)(=O)N3CCCC3)cccn12	101
Cc1nc2scc(C)n2c(=O)c1NC(=O)Cc1ccc(Cl)cc1	97
COc1cccc(CNC(=O)CSc2nc3cc(-c4ccccc4)sc3c(=O)n2C)c1	109
Cc1c(N=Cc2ccccc2Cl)c(=O)n(-c2ccccc2)n1C	106
O=C(COc1ccc(Cl)cc1Cl)NCC12C=CC(O1)C1C(=O)N(c3ccc([N+](=O)[O-])cc3)C(=O)C12 (centres undefined)	107
COc1ccc(C2NC(=S)NC(C)=C2C(=O)Nc2ccc(C)cc2C)c(OC)c1 (centres undefined)	107
CCOC(=O)N1CCN(C(=O)c2ccc3c(=O)n(-c4ccc(F)c(Cl)c4)c(=S)[nH]c3c2)CC1	107
CCOC(=O)N1CCC(Nc2nc(NCCC3=CCCCC3)nc(N3CCOCC3)n2)CC1	111
Cc1ccccc1N1CCN(S(=O)(=O)c2cc(-c3nnc(C4CC4)o3)co2)CC1	100
COc1ccc(OC)c(N=c2ssc3c2-c2ccc(C)cc2NC3(C)C)c1	125
COc1ccc(-c2nc3ccc(C(=O)N4CCN(c5cc(Cl)ccc5C)CC4)cc3nc2-c2ccc(OC)c(OC)c2)cc1OC	115
COc1ccccc1NC(=O)C1=C(C)NC(=O)NC1c1ccc(OC)c(OC)c1 (centres undefined)	96
COc1ccc2c(c1)-c1c(ssc1=S)C(C)(C)N2C(=O)CN1CCC(C)CC1	109
Cc1ccnc2c1C(=O)c1cc([N+](=O)[O-])ccc1-2	94
Cn1nc(-c2nc(C3CC3)no2)c2c1CCN(S(=O)(=O)Cc1ccc(F)cc1)C2	98
Cc1ccc(C(=O)[C@@H]2[C@@H](c3cccc(F)c3)C(C#N)(C#N)[C@H]3C=Cc4cc(Cl)ccc4N23)cc1	113
COc1ccc(C2CC(C(F)(F)F)n3ncc(C(=O)Nc4ccc(Cl)c(C(F)(F)F)c4)c3N2)cc1OC (centres undefined)	103
CC1(C)c2ssc(=S)c2-c2ccccc2N1C(=O)C1CC1	116
O=C1COc2ccc(S(=O)(=O)NC3CCCCC3)cc2N1Cc1noc(C2CCC2)n1	103
CCOC(=O)c1[nH]c(C)c(CN(C(=O)NCC(C)C)C2CCCCC2)c1C	101
CCCCN1CCN(C(=O)c2nc(N3CCSCC3)c3cn(C)nc3n2)CC1	102
CCOC(=O)C1CCN(C(=O)c2ccc(N3CC4CC(C3)c3cccc(=O)n3C4)c(NC(=O)c3ccc(OC)cc3)c2)CC1 (centres undefined)	102

3 compounds out of the list, ordered by length of the SMILES, low to high.
SMILES	GIV-Gai inh
COc1cccc(CNC(=O)CSc2nc3cc(-c4ccccc4)sc3c(=O)n2C)c1	109
CCOC(=O)N1CCC(Nc2nc(NCCC3=CCCCC3)nc(N3CCOCC3)n2)CC1	111
Cn1nc(-c2nc(C3CC3)no2)c2c1CCN(S(=O)(=O)Cc1ccc(F)cc1)C2	98

Later entries
SMILES	GIV-Gai inh
COC(=O)C1=CN(Cc2ccc(OC)c(OC)c2)C=C(C(=O)OC)C1c1ccccc1OC(C)C	103
Cc1ccc2nc(-c3ccc(Br)cc3)cc(C(=O)N3CCOCC3)c2c1	99
CC1=C(c2ccc(C)cc2)S(=O)(=O)N=C1N1CCCN(C(=O)C(C)(C)C)CC1	103
COc1ccc(CNC(=O)c2c[nH]c3ccc(S(=O)(=O)N4CCc5ccccc5C4)cc3c2=O)cc1	109
O=C1C2C3C=CC(CO)(O3)C2C(=O)N1c1ccc(Cl)c(C(F)(F)F)c1 (centres undefined)	103
O=C(NC1CCCC1)c1ccc(Oc2ccnc(-c3ccc(F)cc3)n2)cc1	99
CCOc1ccccc1C(=O)N1CSC[C@@H]1C(=O)NCc1csc(C)n1	103
COCc1c(C#N)c(Nc2cccc(C(F)(F)F)c2)nc(C)c1[N+](=O)[O-]	100
CN(C)C(=O)c1ccc(-c2nnc(Nc3ccccc3O)c3ccccc23)cc1	102
CCOC(=O)C1=C(N)N(c2cccc([N+](=O)[O-])c2)C2=C(C(=O)CCC2)C1c1ccc(Br)cc1 (centres undefined)	124
COc1ccc(C2=NN(c3nc(-c4ccc(S(=O)(=O)N5CCOCC5)cc4)cs3)C(c3ccco3)C2)cc1 (centres undefined)	114
Cc1ccc(S(=O)(=O)N2CCCN(c3nc4cccnc4s3)CC2)cc1	104
O=C(Nc1ccc2c(c1)-c1cc(NC(=O)c3cccc(C(F)(F)F)c3)ccc1S2(=O)=O)c1cccc(C(F)(F)F)c1	107
O=C(Nc1cccc(Br)c1)NC(C(=O)N1CCc2ccccc21)c1ccccc1 (centres undefined)	98
COc1ccc(OC)c(S(=O)(=O)Nc2ccc(N3CCNCC3)c(C(=O)N3CCOCC3)c2)c1	100
O=c1c2c(n3c(=S)[nH]nc3n1-c1ccccc1)-c1ccccc1CC21CCCCC1	107
COc1ccc(CSc2nccc3c2ccn3CC(=O)Nc2ccc(OC)cc2)cc1	100
COc1cccc(-n2c(N)c(C(N)=O)sc2=S)c1	110
CN(C)c1ncccc1NS(=O)(=O)c1ccc(F)cc1	100
Cc1ccc(-c2nnc(SCc3noc(CCC(=O)Nc4cc(C)on4)n3)o2)cc1	105
CCOC(=O)c1nc2cc3n(c(C)c-2c1C)C(C)C(CCC(=O)O)=C3C (centres undefined)	108
Cc1csc(NC(=O)C(C)NS(=O)(=O)c2cc(-c3noc(C4CC4)n3)ccc2C)n1 (centres undefined)	98
COc1ccccc1CNC(=O)c1sc2nc(C)nc(N3CCC(C)CC3)c2c1C	111
O=C(Nc1cc(-c2ccccc2Cl)nn1-c1ccccc1)c1ccccc1	121
O=C(NCCN1CCCC1)C1CCN(c2nc(-c3ccc(Cl)cc3)no2)CC1	109

Structural class, those above with a cyano group (5)
SMILES	GIV-Gai inh
Cc1ccc(CS/C(Nc2ccc(C)c(C)c2)=C(\C#N)C(=O)NCc2ccco2)c(C)c1	103
CCOC(=O)C1=C(N)n2c(s/c(=C\c3ccc(O)cc3)c2=O)=C(C#N)C1c1ccc(O)cc1 (centres undefined)	116
N#Cc1c(N)nc2sc(C(=O)Nc3ccc(Br)cc3)c(N)c2c1-c1cccs1	103
Cc1ccc(C(=O)[C@@H]2[C@@H](c3cccc(F)c3)C(C#N)(C#N)[C@H]3C=Cc4cc(Cl)ccc4N23)cc1	113
COCc1c(C#N)c(Nc2cccc(C(F)(F)F)c2)nc(C)c1[N+](=O)[O-]	100

Fetched one by one from the entries so far, 3 records:
SMILES	GIV-Gai inh
O=C(Nc1ccc2c(c1)-c1cc(NC(=O)c3cccc(C(F)(F)F)c3)ccc1S2(=O)=O)c1cccc(C(F)(F)F)c1	107
Cc1csc(NC(=O)C(C)NS(=O)(=O)c2cc(-c3noc(C4CC4)n3)ccc2C)n1 (centres undefined)	98
COc1ccc(CSc2nccc3c2ccn3CC(=O)Nc2ccc(OC)cc2)cc1	100

Next records follow.
SMILES	GIV-Gai inh
O=C(C1CCCO1)N1CCN(c2ncnc3c2CCC3)CC1 (centres undefined)	103
CCC(=O)Nc1ccc(S(=O)(=O)N2CCC[C@@H]2C(=O)NCCc2csc(C)n2)cc1	99
Cc1nnc2sc(C(=O)Nc3ccccc3)c(C(=O)O)n2c1=O	117
COc1ccc(OC)c(-n2c(CNC(=O)c3ccc(OC)c(OC)c3)nnc2SCC(=O)Nc2nccs2)c1	106
N#Cc1cccc(S(=O)(=O)N2CCC(N3CCOCC3)CC2)c1	102
O=C(O)c1cc(N2CCN(C(c3ccc(F)cc3)c3ccc(F)cc3)CC2)nc2ccccc12	103
COc1ccc(Nc2nc(-c3nnn(-c4ccc(F)cc4F)c3C)ns2)cc1OC	105
Cc1cccc(C)c1NC(=O)C1(N(Cc2ccccc2)C(=O)CO)CCCCC1	102
Cc1ccc(NC(=O)CCc2nc(CSc3nc4ccccc4[nH]3)no2)cc1Cl	106
O=C(Nc1ccc2c(c1)OCCO2)c1cccc(Nc2ncc(-c3cccc(F)c3)cn2)c1	106
CN1CCN(C(=O)Nc2ccc(F)cc2)c2ccccc21	105
CCCCN(C)S(=O)(=O)c1cc(-c2nnc(C)o2)co1	111
CN1CCN(CC(=O)N2c3ccccc3C(C)(c3ccccc3)CC2(C)C)CC1 (centres undefined)	107
CCOC(=O)C1=C(N)Oc2ccc3ccccc3c2C1c1cccnc1 (centres undefined)	106
COc1ccc(/C=N/N2C(=S)SC(C)(C)C2N(O)C(=O)NC2CCCCC2)cc1OC (centres undefined)	104
COC(=O)CSc1nc2ccccc2nc1Cc1cccc([N+](=O)[O-])c1	104
CCOc1ccc(N/C(SCc2ccc(C)cc2C)=C(/C#N)C(N)=O)cc1	109
CCn1c(C)c(-c2nc(C3CC3)no2)c(S(=O)(=O)N2CCCN(C)CC2)c1C	110
COC(=O)C1=C(C(=O)OC)C2(OC1c1ccc(C)c(Cl)c1)C(=O)c1ccccc1C2=O (centres undefined)	114
Cc1cc(NC(=O)C2CCCN(S(=O)(=O)c3cc(-c4noc(C5CCC5)n4)cs3)C2)no1 (centres undefined)	104
Cc1ccc(N2C(=O)C3C4c5ccccc5C(CO)(c5ccccc54)C3C2=O)cc1[N+](=O)[O-] (centres undefined)	120
Cc1nc(-c2cc(S(=O)(=O)N3CCOCC3)c(C)n2C)sc1C	104
COc1cc(OC)c(Nc2ncnc3sc(C(=O)O)c(C)c23)cc1Cl	121
CCOc1ccc(CCN2C(=O)CC(C(N)=O)SC2=Nc2ccc(F)cc2)cc1OCC (centres undefined)	104
COc1ccc2oc(=Nc3ccc(C(=O)O)cc3)c(C(=O)Nc3ccc(OC)c(OC)c3)cc2c1	116
The list goes on.
SMILES	GIV-Gai inh
CCOC(=O)CSc1nc2sc(C(=O)Nc3ccccc3C(F)(F)F)c(C)c2c(=O)n1CCc1ccccc1	108
Cn1c(=O)n(CCC(=O)N2CCCC2)c(=O)c2cc(S(=O)(=O)Nc3cccnc3)ccc21	112
CCOC(=O)C1=NN(c2cccc(Cl)c2)C2C(=O)N(c3ccccc3Cl)C(=O)C12 (centres undefined)	106
CCOC(=O)CSc1nc2ccc(NC(=O)CSCC(=O)Nc3ccccc3)cc2s1	110
COc1ccc(C2C3CCCC=C3C(C#N)=C(N)C2(C#N)C#N)cc1 (centres undefined)	114
CCOc1ccc(N/C(SCc2ccc(C)cc2C)=C(/C#N)C(=O)NCc2ccco2)cc1	112
O=C(CSc1nc2[nH]ncc2c(=O)n1-c1ccc(Br)cc1)Nc1ccc2c(c1)OCCO2	101
COc1cc(/C=c2/sc3nc4ccccc4n3c2=O)ccc1OCc1ccccc1Cl	114
